IkB signaling: IkB pathway inhibition in ABC-DLBCL cells; ABC-DLBCL IkBa-CBG/CBR dual luciferase ratio, 4 h; response scale: scaled: untreated 0%, proteasome inhibitor 100%; Potency, µM (doses to about 57.1 µM), without a hit: at the top dose IkBa stabilization activation; 0.04% of 110,000 active; active = well fitted curve in the direction sought with a large enough effect in the signal ratio, not every such curve was filed as active; the % refers to the signal ratio;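 also: the direction sought is a rising ratio; 0% = basal untreated cells and 100% = reference inhibitor full response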
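Curves were fitted separately to fusion (green), unfused (red) and ratio luminescence, then classed by r2, magnitude and activity. Cells: OCI-Ly3, 4 h compound plus doxycycline at 37C; 10 uM MG-132 defined full response.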
Imprint erasure: inducers of genomic imprint erasure in mouse ES cells; mouse ES Peg3-LacZ reporter, beta-gal luminescence, 40 h; Potency, µM (highest dose often 60.7 µM), inactives show at the top dose activity change, positive = activation, actives largely listed as activators; 0.02% of 110,000 active; active = well fitted activation curve with a large enough effect;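 also: 0% = negative control wells on the plate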
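Readout: BetaGlo luminescence (5 min, room temp) for LacZ from the normally silent maternal Peg3 allele in female Peg3LacZ-Neo ES cells. Cells 300/well, 40 h, 37C, 5% CO2. Data normalized per plate to negative controls.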
Starred values were filed as active, the others as inactive; · = not tested or not shown; & = joins results of further samples; [ ] = another dose, or the depositor's remark. Potency is read from the fitted curve at half-maximal effect.

1. O=S(=O)(O)c1cc(O)ccc1O
  IkB signaling: 1.4%[25.6 µM] | Imprint erasure: 1.7%[16.8 µM]
2. CC(C)COC(=O)c1ccccc1C(=O)OCC(C)C
  IkB signaling: -2.4% | Imprint erasure: -3.9%
3. NCCc1cc(O)c(O)cc1O
  IkB signaling: · | Imprint erasure: -10.7%
4. O=P1(NCCCl)OCCCN1CCCl (stereo unspecified)
  IkB signaling: 0.6%[25.6 µM] | Imprint erasure: -7.8%[16.8 µM]
5. C#CCN(C)[C@@H](C)Cc1ccccc1
  IkB signaling: -0.3%[25.6 µM] | Imprint erasure: -1.4%[16.8 µM]
6. CC(=O)[O-].CC(=O)[O-].O.O.O.[Pb+2]
  IkB signaling: 13.3%&5.2% | Imprint erasure: -4.0%&-0.1%
7. CC[C@@]1(c2ccc(N)cc2)CCC(=O)NC1=O
  IkB signaling: 0.8%[25.6 µM] | Imprint erasure: -3.8%[16.8 µM]
8. C=CCN1CCC23c4c5ccc(O)c4O[C@H]2C(=O)CC[C@@]3(O)C1C5 (stereo partly specified)
  IkB signaling: · | Imprint erasure: 3.4%
9. Nc1ccc([N+](=O)[O-])cc1N
  IkB signaling: 3.0% | Imprint erasure: -2.2%
10. C=CCN1CC[C@]23c4c5ccc(O)c4O[C@H]2C(=O)CC[C@@]3(O)[C@H]1C5
  IkB signaling: · | Imprint erasure: -3.3%
11. Clc1ccc(C(OCCN2CCCCC2)c2ccccc2)cc1 (stereo unspecified)
  IkB signaling: · | Imprint erasure: -13.7%
12. CN(C)C1C(=O)C(C(N)=O)=C(O)[C@@]2(O)C(=O)C3=C(O)c4c(O)cccc4[C@@](C)(O)C3[C@H](O)C12 (stereo partly specified)
  IkB signaling: · | Imprint erasure: -20.3%
13. CCCCOC(=O)c1ccccc1N
  IkB signaling: -2.2% | Imprint erasure: 1.3%
14. C=CCOC(=O)c1ccccc1N
  IkB signaling: -0.9% | Imprint erasure: 0.9%
15. CCC1CN2CCc3cc(OC)c(OC)cc3C2CC1CC1NCCc2cc(OC)c(OC)cc21 (stereo unspecified)
  IkB signaling: · | Imprint erasure: -35.2%[inhibitor]
16. CN[C@@H](C)[C@H](O)c1ccccc1
  IkB signaling: · | Imprint erasure: -90.2%[inhibitor]
17. CN1C(=O)CCS(=O)(=O)[C@@H]1c1ccc(Cl)cc1
  IkB signaling: 1.7%[25.6 µM] | Imprint erasure: -4.8%[16.8 µM]
18. O=C(O)C(Cl)Cl
  IkB signaling: -0.4% | Imprint erasure: 7.4%
19. O=C(O)/C=C\C(=O)O
  IkB signaling: 0.0% | Imprint erasure: -2.3%
20. O=[N+]([O-])c1cc(Cl)c(Cl)cc1Cl
  IkB signaling: 1.8% | Imprint erasure: 4.0%
21. CN1CC[C@@]23CCCC[C@@H]2[C@@H]1Cc1ccc(O)cc13
  IkB signaling: 7.4% | Imprint erasure: ·
22. CCCC(C)C1(CC)C(=O)NC(=O)NC1=O (stereo unspecified)
  IkB signaling: · | Imprint erasure: -9.2%
23. Clc1ccc(CO[C@@H](Cn2ccnc2)c2ccc(Cl)cc2Cl)cc1
  IkB signaling: 1.7%[25.6 µM] | Imprint erasure: -6.6%[16.8 µM]
24. C=COC(C)=O
  IkB signaling: -0.9% | Imprint erasure: 0.2%
25. NN=C(N)N
  IkB signaling: 0.6%&-2.8%&-0.8% | Imprint erasure: -7.7%&-0.6%&-2.4%&-29.7%
26. C=C(C)[C@H]1CN[C@H](C(=O)O)[C@@H]1CC(=O)O
  IkB signaling: 0.0% | Imprint erasure: -3.3%
27. CC(C)N(CC[C@@](C(N)=O)(c1ccccc1)c1ccccn1)C(C)C
  IkB signaling: 2.3%[25.6 µM] | Imprint erasure: -2.8%[16.8 µM]
28. COC(=O)c1ccccc1N
  IkB signaling: -0.7% | Imprint erasure: 1.0%

Structures from the list above containing a carbonyl joined to an NH by a bond outside any ring:
12. CN(C)C1C(=O)C(C(N)=O)=C(O)[C@@]2(O)C(=O)C3=C(O)c4c(O)cccc4[C@@](C)(O)C3[C@H](O)C12 (stereo partly specified)
  IkB signaling: · | Imprint erasure: -20.3%
27. CC(C)N(CC[C@@](C(N)=O)(c1ccccc1)c1ccccn1)C(C)C
  IkB signaling: 2.3%[25.6 µM] | Imprint erasure: -2.8%[16.8 µM]

Full records, looked up by structure:
`NN=C(N)N` is entered as IkB signaling: 0.6%&-2.8%&-0.8%; Imprint erasure: -7.7%&-0.6%&-2.4%&-29.7%
`CC(C)N(CC[C@@](C(N)=O)(c1ccccc1)c1ccccn1)C(C)C` is entered as IkB signaling: 2.3%[25.6 µM]; Imprint erasure: -2.8%[16.8 µM]

Part of the list above, tab-delimited.
no.	Structure	IkB signaling	Imprint erasure
25	NN=C(N)N	0.6%&-2.8%&-0.8%	-7.7%&-0.6%&-2.4%&-29.7%
20	O=[N+]([O-])c1cc(Cl)c(Cl)cc1Cl	1.8%	4.0%

Screening results deposited in PubChem BioAssay by National Center for Advancing Translational Sciences (NCATS).

A portion of the library; most or all hits stand in other tables.
